High-throughput results deposited in PubChem BioAssay by National Center for Advancing Translational Sciences (NCATS).
gsp antag = antagonists of gsp mutant (McCune-Albright syndrome); gsp-mutant cells, cAMP HTRF, 30 min; control for the full effect not named in the record; Potency, µM (top dose mostly 76.9 µM), inactives show at the highest dose activity change, negative = inhibition, actives largely listed as inhibitors; 340,000 tested, 0.4% active; AID 624288; active = falling curve of any shape with a large fitted effect; inconclusive = falling curve, mostly with a smaller effect; inactive = flat or rising curve; cell line not stated here;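 note: intracellular cAMP measured with PDE inhibitor Ro 20-1724 present during compound exposure; potency is the fitted concentration of half-maximal effect; % is set by controls: 0 for no effect and ±100 for the full control effect; nearly all actives have a fitted effect of over 65% in size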
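Cells in G418 medium, seeded 16-24 h, 37C; buffer exchange to DPBS + 1 mM CaCl2, 0.5 mM MgCl2, 0.05% BSA; cpds in DMSO + […] (300 uM stock), 30 min 37C; HTRF cAMP detection.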
Sfp PPTase inh = inhibitors of Bacillus subtilis Sfp phosphopantetheinyl transferase; Biochemical Sfp PPTase activity, qHTS; Potency, µM, without a hit: max response, negative = inhibition, most hits filed as inhibitors; 310,000 tested, 3.5% active; active = well fitted inhibition curve with a large enough effect; inconclusive = small, poorly fitted or top-dose-only effect, or another doubt; inactive = no such curve, though single readings can be large or run the other way;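 note: the enzyme is Sfp with the accession as filed and its product quenches rhodamine fluorescence; potency is the fitted concentration of half-maximal effect; 0% = enzyme reaction without inhibitor and -100% = no enzyme wells; top concentration of the series not given in the record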
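Step 1, compound plus 15 nM Sfp-PPTase, 15 min, room temperature. Step 2, add rhodamine-CoA (5 uM) and BHQ-2-YbbR (12.5 uM). Step 3, read 525/598 nm fluorescence at 0 and 30 min.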
ClpP mod = qHTS Assay for Activators of ClpP; 340,000 tested, 1.9% active; Potency, µM (top dose mostly 57.5 µM), without a hit: top-dose activity change, negative = active; AID 651965, 2013; purified B. subtilis ClpP, FRET peptide cleavage, 20 min; ATP-dependent Clp protease proteolytic subunit (Bacillus subtilis (strain 168)), P80244; active = well fitted falling curve with a large enough effect; inconclusive = small, poorly fitted or top-dose-only effect; inactive = no such curve, though single readings can be large or run the other way; note: potency is the fitted concentration of half-maximal effect; the source files actives as falling curves though it sought activators and does not explain the sign; nearly all actives have a fitted effect of over 65% in size; many hits overshoot -100%
Target sequence (P80244 whole entry, looked up): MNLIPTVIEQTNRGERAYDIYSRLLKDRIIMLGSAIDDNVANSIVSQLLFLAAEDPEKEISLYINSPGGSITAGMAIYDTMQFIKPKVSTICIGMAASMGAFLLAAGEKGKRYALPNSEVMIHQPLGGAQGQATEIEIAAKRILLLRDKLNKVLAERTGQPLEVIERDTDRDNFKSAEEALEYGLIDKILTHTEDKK
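ClpP 10 microg/mL final, pH 8 Tris/KCl buffer with BSA, glycerol, Tween-20; compound pinned in; FRET-FV substrate; RT 20 min; Ex320/Em430; ΔFRET vs ADEP 5.8 microM, DMSO, no enzyme.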
Menin-MLL FL inh = inhibitors of human menin-MLL interaction, wild-type MLL peptide | FP activity change, % at 61.4 µM | Fluorescence polarization, fluorescein-MLL peptide displacement from menin | AID 1766 | 290,000 tested, under 10 active; inconclusive = falling polarisation curve, or a change in total fluorescence; inactive = total fluorescence flat and polarisation flat or rising; no compound was filed as active; the % refers to the polarisation; negative = inhibition;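 note: % of control where 0% means no effect; inhibitors lower the polarisation; unlabelled MLL peptide was the positive control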
TRPML1 inh = blocks the human TRPML1 channel. activity change, negative = inhibition, % (test concentration not listed). TRPML1-inducible cells, Ca2+ dye fluorescence, FDSS; stronger effect = lower value; inhibition of EC80 agonist-evoked calcium signal. 390,000 tested, 0.02% active. Q9GZU1; in the data active means activity change below about -50%; inconclusive means about -30% to -50%; inactive means above about -30%;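 note: stimulus is agonist 54-4 at its EC80 concentration; % is set by controls: 0 for no effect and ±100 for the full control effect; compound concentration not given in the record; the text of the record puts the active cut at -80%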
Target sequence (Q9GZU1 whole entry, looked up): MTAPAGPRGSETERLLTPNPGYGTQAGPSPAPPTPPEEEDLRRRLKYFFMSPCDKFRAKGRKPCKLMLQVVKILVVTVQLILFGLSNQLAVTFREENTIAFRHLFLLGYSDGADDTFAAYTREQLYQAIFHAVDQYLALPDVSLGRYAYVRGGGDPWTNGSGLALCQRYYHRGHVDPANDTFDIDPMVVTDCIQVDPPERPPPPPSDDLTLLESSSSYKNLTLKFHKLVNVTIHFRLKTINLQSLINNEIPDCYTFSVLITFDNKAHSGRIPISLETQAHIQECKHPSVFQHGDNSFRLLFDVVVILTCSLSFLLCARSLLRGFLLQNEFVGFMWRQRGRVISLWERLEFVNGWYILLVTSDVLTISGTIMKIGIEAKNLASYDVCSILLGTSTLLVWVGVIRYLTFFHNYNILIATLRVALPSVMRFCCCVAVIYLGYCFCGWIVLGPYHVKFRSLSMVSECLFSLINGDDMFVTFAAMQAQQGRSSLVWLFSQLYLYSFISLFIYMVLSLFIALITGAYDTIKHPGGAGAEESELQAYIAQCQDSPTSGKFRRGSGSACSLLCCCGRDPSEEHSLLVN
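TRPML1-DL cells, Tet-induced overnight (~16 h, 37 °C) at 1,500 cells/well, were loaded with Ca8 no-wash dye plus quencher for 45-90 min at room temperature. Compounds were pinned during FDSS kinetic reading; agonist 54-4 at EC80 (4 uM final) then added.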
TRPV1 potentiator = potentiators of human vanilloid receptor 1 (TRPV1) | TRPV1-expressing cells, Fluo-8 calcium influx, capsaicin EC20 potentiation; host cell line not named in the record; control for the full effect not named in the record | potentiation, % at 8.33 µM | 320,000 tested, 0.02% active; active means potentiation above 80%; inconclusive means 30% to 80%; inactive means below 30%; note: 0% is about no effect
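Fluo-8 calcium influx in TRPV1-expressing cells, kinetic read (ex 480/em 520 nm). Compound added and read 3 min for agonist activity, followed by capsaicin at EC20 final and 2 min further read for enhancement.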
gsp agonist = gsp mutant agonism | gsp mutant cells, cAMP HTRF, 30 min; control for the full effect not named in the record | Potency, µM (top dose mostly 76.9 µM), without a hit: at the highest dose activation (cAMP increase), hits mostly activators | 340,000 tested, 0.13% active; active = well fitted activation curve with a large enough effect; inconclusive = small, poorly fitted or top-dose-only effect, or another doubt; inactive = no such curve, though single readings can be large or run the other way; cell line not stated here;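 note: phosphodiesterase inhibitor Ro 20-1724 added with compounds to block cAMP breakdown; potency is the fitted concentration of half-maximal effect; nearly all actives have a fitted effect of over 60% in size; about a fifth of the inactives were tested at one dose only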
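Cells stably selected in G418 were plated at 2000/well, grown 16-24 hr, then given compounds in DMSO with the PDE inhibitor […] (300 uM solution added) for 30 min at 37C; cAMP was read by HTRF.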
* marks the source's active call; other numbers are inactive results; ? = inconclusive; . = no result given; & = joins results of further samples; [ ] = remark or other dose.

smiles,gsp antag,Sfp PPTase inh,ClpP mod,Menin-MLL FL inh,TRPML1 inh,TRPV1 potentiator,gsp agonist
Nc1c(C(=O)Nc2ccc(Cl)c(C(=O)O)c2)sc2nc3c(cc12)CCCC3,-5%,5%,-15%,.,-5,-13,?
C/C(Cc1ccccc1)=N/NC(=O)CCCC(=O)N/N=C(/C)Cc1ccccc1,1%,5%,0.5%,-1.7,12,5,?
O=C1CCN(C(=O)Cc2ccccc2)c2ccccc21,.,.,3.9%,.,0,.,-36%[inhibitor]
COc1ccccc1-c1c(C#N)c(SCC(=O)N2CCCC2)nc(C)c1C(N)=O,.,?,.,5.7,.,-3,.
O=[N+]([O-])c1ccc(Cl)cc1NCC1CCCO1 (stereo not given),-9%,15%,-1.4%,2.4,10,3,20%
COC(=O)[C@@H]1[C@H](CCc2ccccc2)NC(=O)N(Cc2ccccc2)[C@@H]1C,-5%,-2%,-0.2%,-5.9[11.7 µM],-10,.,.
CC(C(=O)N1c2ccccc2CCc2ccccc21)n1nnc(-c2ccc(N(C)C)cc2)n1 (stereo not given),-19%,-1%,?,11,6,10,14%
CC(=O)Nc1cccc(OCC(=O)Nc2cccc(S(=O)(=O)N3CCCC3)c2)c1,-10%,.,-0.9%,.,15,-2,-25%
COc1ccc(Cc2nnc(NC(=O)Cn3cnc4c3c(=O)n(C)c(=O)n4C)s2)cc1OC,2%,-10%,-3.7%,1.1,-14,20,?
CCCNC(=S)N1CCN(c2nc(-c3ccc(C)cc3)cs2)CC1,-33%,10%,2.3%,5.6,13,10,19%[15.4 µM]
Cn1c(C(=O)Nc2ccc3c(c2)OCCO3)cc2sccc21,-27%,-20%,0.4%,-5.3,5,-7,?
Cc1ccc2c(C)c(C(=O)N3CCN(C4CCS(=O)(=O)C4)CC3)oc2c1C (stereo not given),-14%,6%,-2.8%,.,6,-1,1%[15.4 µM]
COc1ccc(OC)c(C(=O)CSc2nnc(Cc3cccs3)n2C)c1,-1%,45µM*,0.8%,7.4,6,0,-1%
O=C(CCCCCN1C(=O)c2cccc3cccc(c23)C1=O)NCCO,6%,9%,4.6%,-1.6,6,-8,?
CC(=O)c1ccc(NC(=O)C2=CC(c3ccco3)=NS(=O)(=O)N2C)cc1,-18%,11%,-1.5%,-1.8,-6,12,1%
Cc1ccc(-n2c(SCC(=O)NCc3ccco3)nc3c([nH]c4ccccc43)c2=O)cc1,-6%,5%,?,0.2,-12,1,3%

An excerpt from above in order of number of heavy atoms, falling.
smiles,gsp antag,Sfp PPTase inh,ClpP mod,Menin-MLL FL inh,TRPML1 inh,TRPV1 potentiator,gsp agonist
CC(C(=O)N1c2ccccc2CCc2ccccc21)n1nnc(-c2ccc(N(C)C)cc2)n1 (stereo not given),-19%,-1%,?,11,6,10,14%
CC(=O)c1ccc(NC(=O)C2=CC(c3ccco3)=NS(=O)(=O)N2C)cc1,-18%,11%,-1.5%,-1.8,-6,12,1%
O=[N+]([O-])c1ccc(Cl)cc1NCC1CCCO1 (stereo not given),-9%,15%,-1.4%,2.4,10,3,20%

(listing goes on)
smiles,gsp antag,Sfp PPTase inh,ClpP mod,Menin-MLL FL inh,TRPML1 inh,TRPV1 potentiator,gsp agonist
O=C(c1ccoc1)N1CCCC(CO)(CCCc2ccccc2)C1 (stereo not given),10%,15%,-0.3%,.,-11,7,-20%
COc1cccc(C(C(=O)Nc2ccc(F)cc2)N(C(=O)Cn2nnc3ccccc32)C2CC2)c1 (stereo not given),-1%,-2%,-9.8%,1.5,-1,.,15%
COc1cccc(/C=N/NC(=O)C[n+]2ccccc2)c1O,-9%,37%,-2.6%,6.4,-15,-2,-13%
COc1ccc(CC(=O)Nc2ccc(-c3cn4cccc(C)c4n3)cc2)cc1OC,-20%,?,?,4.0,24,-15,27%
CCCN1Cc2cccc(C(=O)Nc3ccc(C)cc3)c2C1=O,6%,4%,4.2%,3.3,4,-8,-23%
COc1ccccc1CCNC(=O)C(=O)NCC1OCCCN1S(=O)(=O)c1cc(C)ccc1C (stereo not given),-14%,1%,-0.2%,.,25,12,-38%[inhibitor]
CCCN1CCC(=O)N(CCSc2ccc(NC(C)=O)cc2)CC1,7%,6%&11%,0.1%,6.9&-6.9,-13&-5,-35,.
O=C(CCC(=O)c1ccc(Oc2ccccc2)cc1)Nc1ccc(Cl)cc1Cl,5%,21%,-1.5%,?,41,19,-40%[inhibitor]
CCNC(=O)c1cc2ccccc2o1,5%,5%,-2.2%,1.8,-3,0,10%
O=C(CCC1CCCC1)NC1CCCCC1,-9%,6%,1.8%,-1.4,-6,-6,?
O=C(Cn1nnc(-c2ccccc2)n1)N/N=C/c1cccc([N+](=O)[O-])c1,-11%,-1%,-1.3%,0.3,10,-2,-7%[15.4 µM]
Cc1ccc(C(=O)NNC(=O)C(C)Oc2ccc3ccccc3c2)o1 (stereo not given),0%,.,-2.3%,.,-24,4,-12%
COC(=O)C1C(=O)C2=C(CC1C)NC(=O)CC2c1ccc(F)cc1 (stereo not given),-3%,20%,.,0.6,9,4,11%[15.4 µM]
Cc1ccc(-c2ccc(C3C4C=CCC(C)C4C(=O)N3Cc3ccccc3)c(F)c2)cc1 (stereo not given),.,?,.,-11,75,.,.
O=C(COC(=O)c1cccc([N+](=O)[O-])c1)Nc1ncc(Br)s1,9%,.,.,.,14,.,-2%
NS(=O)(=O)c1cccc(NC(=O)COC(=O)CN2C(=O)c3ccccc3C2=O)c1,3%,.,1.7%,.,-8,4,-38%[inhibitor]
CCOC(=O)c1c(S(=O)(=O)NCC(=O)Nc2cccc(F)c2)c(C)n(C)c1C,0%,9%,-2.6%,.,-7,5,0%
O=C(Nc1cccc(Cl)c1)c1cccnn1,9%,3%,.,2.1,-4,0,-3%[15.4 µM]
COC(=O)c1ccccc1NC(=O)CSc1nnc(-c2ccoc2C)n1C,19%,6%,-2.5%,0.0,-16,-2,5%
CC(=O)C1=C(C)Nc2ncnn2C1c1ccc(Cl)cc1Cl (stereo not given),?,0%,0.9%,1.2,-19,2,7%
CCCCN1C(=O)C(NC(=O)C2CC2)(C(F)(F)F)C2=C1CC(C)(C)CC2=O (stereo not given),4%,20%,1.8%,-0.9,2,17,-4%
S=C1NC(c2ccccc2)=NCN1c1ccc(Br)cc1,-8%,12%,0.1%,1.8,9,15,-43%[inhibitor]
CC(Sc1nnc(-c2ccco2)o1)C(=O)Nc1ccc(OC(F)F)cc1 (stereo not given),4%,.,-1.4%,.,10,.,3%
Cc1onc(-c2ccccc2)c1C(=O)N1CCN(S(=O)(=O)c2ccc(Cl)cc2)CC1,-7%,21%,.,.,12,-4,1%

Only Menin-MLL FL inh and gsp agonist (2 entries from above):
molecule | Menin-MLL FL inh | gsp agonist
CC(C(=O)N1c2ccccc2CCc2ccccc21)n1nnc(-c2ccc(N(C)C)cc2)n1 (stereo not given) | 11 | 14%
CC(=O)Nc1cccc(OCC(=O)Nc2cccc(S(=O)(=O)N3CCCC3)c2)c1 | . | -25%

Following part
smiles,gsp antag,Sfp PPTase inh,ClpP mod,Menin-MLL FL inh,TRPML1 inh,TRPV1 potentiator,gsp agonist
Cn1c(SCC(=O)NC2CCCCC2)nnc1-c1ccncc1,8%,13%,.,-2.8,-15,7,?
CC1(C)Cc2c(cnn2-c2ccccc2)C(NC(=O)CCCN2CCCCC2=O)C1 (stereo not given),-3%,7%,-1.4%,.,13,-1,20%[15.4 µM]
COC(=O)/C(=C\Nc1ccc(OC)cc1)NC(=O)c1ccc(Cl)cc1Cl,6%,-29%,-0.9%,3.7,17,-14,0%
O=c1[nH]c(CSc2nc3ccccc3[nH]2)nc2c1cnn2-c1ccccc1,-18%,-21%,0.0%,-1.4,-27,6,-17%
Cc1cc(NC(=O)CN2CCCC2c2nc3ccccc3s2)no1 (stereo not given),-3%,?,-13%,-0.1,-5,-27,-8%
Cc1ccnc(NC(=O)c2cccc(S(=O)(=O)NCc3ccccc3)c2)c1,-9%,.,1.2%,.,-4,-1,11%
O=Cc1c[nH]c2ncccc12,-1%,15%,-0.9%,-0.4,3,1,-5%
CC(=O)N(c1ccccc1)c1nnc(-c2cnc(C)cn2)s1,9%,6%,.,5.6,15,6,-3%[15.4 µM]
CCC(=O)c1cn([C@@H](CCC(OC)OC)CC(=O)OC(C)(C)C)cc1CC,3%,.,0.6%,.,0,.,-25%
O=c1[nH]nc(SCCS(=O)(=O)c2ccc(F)cc2)n1-c1ccccc1,9%,11%,-0.3%,6.1,-17,14,-10%[15.4 µM]
Cc1nnc(SC(C)C(=O)Nc2ccc(S(=O)(=O)N3CCCCC3)cc2)s1 (stereo not given),-9%,17%,-1.9%,0.0,23,1,?
N#Cc1ccc(C(=O)OCC(=O)Nc2ccc(N3CCOCC3)cc2)cc1,4%,-2%,.,-3.4,2,0,-19%[15.4 µM]
Nc1nc(SCC(=O)Nc2cc(S(=O)(=O)N3CCOCC3)ccc2Cl)n[nH]1,2%,-3%,-0.9%,-1.5,-16,-2,0%[15.4 µM]
CCN(CC)C(=O)c1cn(C)c(=O)c2cc(OC)c(OC)cc12,17%,11%,-24%,-0.1,?,-1,-8%
